Bioassay records (PubChem)
Mtb H37Rv – M. tuberculosis H37Rv growth inhibitors, H37Rv strain (AID 1626); actives 0.95% (n = 220,000); inhibition, % at 10 µM, or IC50 in µM where a hit was titrated; M. tuberculosis H37Rv growth inhibition; higher % means a stronger effect;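 active = confirmed in a dose series; inconclusive = inhibition above 80% but not taken into the dose series; inactive = below 80% or under 30% at every dose of the series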;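 note: bacteria incubated seven days before Alamar blue readout; 0% = bacteria only wells and 100% = bacteria with antibiotic wells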
RecA splice inh – inhibitors of M. tuberculosis RecA intein splicing; cell-free RecA intein splicing, fluorescence; inhibition, %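 (about 9 µM by stock and volumes)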; actives 0.75% (n = 290,000); in the data active = inhibition above about 30%; inconclusive = no clear call, values can overlap the other calls;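 note: 0% = vehicle wells and 100% = reference inhibitor control wells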
Target sequence (P9WHJ3 whole entry, looked up, canonical isoform): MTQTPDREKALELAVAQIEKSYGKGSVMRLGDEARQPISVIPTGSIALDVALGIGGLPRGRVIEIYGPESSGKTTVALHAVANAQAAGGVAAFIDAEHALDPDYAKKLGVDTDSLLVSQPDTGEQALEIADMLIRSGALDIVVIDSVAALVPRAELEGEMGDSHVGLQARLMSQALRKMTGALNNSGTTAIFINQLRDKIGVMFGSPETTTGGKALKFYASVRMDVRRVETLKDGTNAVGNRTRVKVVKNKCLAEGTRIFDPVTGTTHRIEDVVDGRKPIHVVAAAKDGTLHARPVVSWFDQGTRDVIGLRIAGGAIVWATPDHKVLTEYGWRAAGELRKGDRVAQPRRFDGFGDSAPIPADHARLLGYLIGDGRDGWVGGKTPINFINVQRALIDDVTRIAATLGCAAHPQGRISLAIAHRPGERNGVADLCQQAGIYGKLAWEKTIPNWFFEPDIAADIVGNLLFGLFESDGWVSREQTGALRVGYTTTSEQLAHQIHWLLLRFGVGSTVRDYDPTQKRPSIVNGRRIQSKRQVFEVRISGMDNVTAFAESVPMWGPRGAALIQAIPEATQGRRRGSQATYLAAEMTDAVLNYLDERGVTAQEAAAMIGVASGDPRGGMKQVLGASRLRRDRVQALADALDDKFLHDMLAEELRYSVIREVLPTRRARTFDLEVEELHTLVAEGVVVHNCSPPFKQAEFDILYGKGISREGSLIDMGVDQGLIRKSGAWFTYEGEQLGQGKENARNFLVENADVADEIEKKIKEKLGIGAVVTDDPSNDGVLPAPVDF
Arbovirus anti – arbovirus infection inhibition. AID 1251. inhibition, % at 10 µM. arbovirus infection cell-based antiviral screen. actives 0.37% (n = 200,000);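 active = inhibition from about 30%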;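 note: bluetongue infection of BSR cells; cell survival read as ATP light after 72 h; 0% = infected wells without compound and 100% = uninfected wells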
YopH PTP inh – blocks Yersinia enterocolitica YopH tyrosine phosphatase. fluorescence Ex485/Em525. actives 0.16% (n = 140,000). inhibition, %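 (about 10 µM by stock and volumes)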;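 active = inhibition of 50% or more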;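 note: controls were vehicle for no effect and minimum signal wells for full effect; inactives centre near -20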
Mtb betalactam – beta-lactam sensitization of Mtb H37Rv; M. tuberculosis H37Rv growth with meropenem, percent inhibition; hits of this screen are not shown here; inhibition, % at 25 µM; actives 0.27% (n = 330,000); AID 434955;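 active = about 74% or more and at least 40 points above the plate without the antibiotic, then above 30% in a dose series; inconclusive = first-round hits that could not be retested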;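 note: growth measured after seven days incubation then overnight dye step; 0% = bacteria only wells and 100% = bacteria with antibiotic; twin plates without the antibiotic show which effects depend on it; some results filed as inactive read as strong as hits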
Arbovirus anti repeat – recorded beside Arbovirus anti, whose call it bears; inhibition, %; measured here: 10K subset replicate screen; many hits read low in the repeat;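 first of two repeat runs on a subset; 0% = infected and 100% = uninfected wells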
* = called active by the depositor; ? = inconclusive; . = no result given; & = joins results of further samples. The list is partial; the hit share may differ from the screen's.

SMILES	Mtb H37Rv	RecA splice inh	Arbovirus anti	YopH PTP inh	Mtb betalactam	others
CCCCN(C(=O)c1ccc(N(C)S(=O)(=O)c2ccc(C)cc2)cc1)c1c(N)n(CCCC)c(=O)[nH]c1=O	.	0.3	.	.	-2.4
CC(C)(C)c1ccc(C(=O)NCc2nnc(SCC(=O)NC3CCCCC3)o2)cc1	.	5.5	.	.	?
Cc1ccccc1N=Nc1c(C)[nH]n(C(N)=S)c1=O	11.6%	-0.4	-1.1	-34.5	72.3
CCC(=O)Nc1nc(-c2ccccc2)ns1	2.1%	-2.3	13.2	-66.7	-5.5
CC1(C)S[C@@H]2[C@H](NC(=O)[C@H](N)c3ccc(O)cc3)C(=O)N2[C@H]1C(=O)O	-15.6%	-2.6	3.5	0.6	-2.2
CCOC(=O)c1c(O)cc(C)[nH]c1=O	-3.1%&-8.4%	0.0	.	.	-1.0
NC(=O)C1(N2CCCCC2)CCN(C2CC(=O)NC2=O)CC1 (centres undefined)	-3.9%	-0.1	-1.5	-13.8	-4.6
COc1ccc(C2=NOC(C)(c3nnc(-c4ccc(F)cc4)o3)C2)cc1 (centres undefined)	-6.7%	-4.9	.	.	-4.5
COC(=O)Nc1ccc(S(=O)(=O)N2CCN(CCN3C(=O)C4C5C=CC(C5)C4C3=O)CC2)cc1 (centres undefined)	-5.1%	4.3	2.9	-24.1	-12.6
Cc1ccc(Cl)cc1NC(=O)Nc1cccs1	0.9%	1.3	19.3	.	-1.2
CN(CC(=O)Nc1ccccc1Br)C(=O)CNC(=O)Cc1cccc2ccccc12	.	-3.5	.	.	-3.2
CCc1ccc(NC(=O)c2ccnc(C(C)(C)C)c2)cc1	-0.1%	2.3	-2.1	3.1	4.2
CCOC(=O)C1=C(C)OC(N)=C(C#N)C1c1cc(OC)c2c(c1)OCO2 (centres undefined)	7.4%	-3.3	-4.3	-26.3	-6.6
Cc1ccc(C)c(NC(=O)c2ccc3c(c2)N(Cc2ccc(F)cc2)C(=O)CS3=O)c1 (centres undefined)	0.7%	3.5	29.7	-10.9	2.2
Cc1cccc(-c2ncc(CN3CCN(C4CCCC4)C(CCO)C3)cn2)c1 (centres undefined)	-7.8%	-2.0	-12.6	.	-8.4
CC(C)c1ccc(Nc2nnc(SCC(=O)Nc3ncc(S(=O)(=O)c4ccc([N+](=O)[O-])cc4)s3)s2)cc1	5.63µM*	-2.0	-14.2	.	99.7
COCCn1c(CCC(=O)O)ccc1-c1cccs1	6.4%	-16.1	1.8	.	-3.0
COc1ccc(/C=C(/NC(=O)c2ccc(OC)c(OC)c2)C(=O)NCCCn2ccnc2)cc1	.	-2.6	.	.	-2.6
CCC(C(=O)O)n1c(C(F)(F)F)nc2ccccc21 (centres undefined)	-13.3%	0.4	8.6	-44.6	-6.0
Cc1c(Cl)cccc1NC(=S)N(C)CCC#N	-1.0%	-1.9	21.0	.	9.1
CC(=O)Nc1ccc2nc(NC(=O)COc3ccccc3C)sc2c1	4.3%	0.7	-2.0	.	-2.5
Cc1ccc(C(=O)NC2CCN(Cc3ccccc3)CC2)cc1S(=O)(=O)N1CCOCC1	.	-4.7	.	.	-6.6
COCCSc1nnc(NC(=O)Cc2cccs2)s1	9.1%	-0.3	-2.4	-31.9	13.7
Cc1cccc(-n2c(O)c(C=NCc3ccccn3)c3ccccc3c2=O)c1	2.1%	-5.8	-7.3	-6.9	-0.4
CCCC(=O)N1CCc2cc(-c3nc(N)sc3C)ccc21	-2.4%	-4.1	-6.5	-2.9	-4.3
CCOc1ccc(S(=O)(=O)N2CCC(C(=O)NCc3ccccn3)CC2)cc1	.	1.3	.	.	-1.7
CCOC(=O)CN1NC2(CCC(C)CC2)NC1=S (centres undefined)	-3.9%	0.0	0.9	-11.0	0.0
COc1ccc(C(=O)N2CCC(N3CCN(c4ccccc4)CC3)CC2)cc1OC	-5.2%	-1.0	-3.2	-31.2	2.1
COc1ccc(-n2c(=O)c3ccccc3n(CC(=O)Nc3cc(C)on3)c2=O)cc1OC	2.0%	11.2	-0.4	-25.8	3.3
Nc1cc(=O)[nH]c(=S)n1-c1ccccc1	-1.3%	1.0	12.7	-14.4	-5.9
Cn1c(=O)c2c(SCC(N)=O)nc(CC(C)(C)C)nc2n(C)c1=O	-5.6%	11.0	9.7	-19.8	-1.2
Cc1ccc2c(c1)CC1(CN2C)C(=O)NC(=O)N(c2ccc(C)c(C)c2)C1=O (centres undefined)	25.2%	-3.3	9.9	-12.8	2.8
Cc1cnc(C(=O)OCC(=O)N2CCc3ccccc3C2)cn1	-6.6%	0.6	2.6	-33.2	-2.1
Cc1ccccc1OCc1nnc(SCC(=O)O)n1Cc1ccccc1	-2.2%	-2.8	-0.8	.	-9.6
CC(=O)c1cccc(NC(=S)NCc2ccccc2)c1	.	0.1	.	.	-3.2
OC(COCC1CC=CCC1)Cn1cnc2ccccc21 (centres undefined)	6.0%	2.2	12.4	-2.4	1.6
Cc1ccc(-n2nc3c(Cl)nnc(C)c3c2C)cc1	-5.8%	7.7	0.2	-13.9	7.5
COc1cccc(Cn2nnc(C(=O)NCc3ccccc3Cl)c2N)c1	7.6%	3.6	-3.9	-26.1	5.2
O=C(CSc1ncccn1)Nc1ccccc1	-6.2%	-3.9	0.4	-20.5	5.9
CC(C)(C)Nc1nc2ccc([N+](=O)[O-])cc2o1	7.8%	2.7	.	.	3.8
CC1CN(C/C(=N\O)C23CC4CC(CC(C4)C2)C3)CC(C)O1 (centres undefined)	.	0.4	.	.	8.8
CC#CCN1c2ccccc2[C@]23C[C@@H](C(=O)OC)N(C(=O)OCC)C2=NC(C(=O)OC)=C(C(=O)OC)[C@H]13	-5.3%	-0.5	.	.	-1.6
CCS(=O)(=O)NCc1csc(-c2ccccc2)n1	5.1%	4.2	-4.5	-22.8	-2.1	Arbovirus anti repeat=-1.8
CCn1cc(C(=O)N2CCCC2)c(=O)c2cc(S(=O)(=O)N3CC(C)CC(C)C3)ccc21 (centres undefined)	.	-0.2	.	.	2.9
Cc1onc(-c2ccccc2)c1C(=O)Nc1nnc(C(C)C)s1	.	-0.6	.	.	-5.5

Reprinted at random: five entries already listed
SMILES	Mtb H37Rv	RecA splice inh	Arbovirus anti	YopH PTP inh	Mtb betalactam	others
CC(=O)c1cccc(NC(=S)NCc2ccccc2)c1	.	0.1	.	.	-3.2
Cc1onc(-c2ccccc2)c1C(=O)Nc1nnc(C(C)C)s1	.	-0.6	.	.	-5.5
Cc1ccc(-n2nc3c(Cl)nnc(C)c3c2C)cc1	-5.8%	7.7	0.2	-13.9	7.5
CC#CCN1c2ccccc2[C@]23C[C@@H](C(=O)OC)N(C(=O)OCC)C2=NC(C(=O)OC)=C(C(=O)OC)[C@H]13	-5.3%	-0.5	.	.	-1.6
OC(COCC1CC=CCC1)Cn1cnc2ccccc21 (centres undefined)	6.0%	2.2	12.4	-2.4	1.6

(next part)
SMILES	Mtb H37Rv	RecA splice inh	Arbovirus anti	YopH PTP inh	Mtb betalactam	others
C=CCN1C(=O)C(=O)N(Cc2nc3ccccc3s2)C1=O	.	1.4	.	.	0.1
CC(C)CC(=O)Nc1nnc(S(=O)(=O)N(C)Cc2ccco2)s1	.	-0.1	.	.	1.9
CC(=O)c1c(Nc2ccccc2)sc(C(=O)c2ccccc2)c1C	15.2%	-1.0	-12.0	-2.1	10.8
CCN(CC)S(=O)(=O)c1cccc(C(=O)N/N=C/c2ccccc2OCC(=O)O)c1	-2.3%	-0.6	-6.0	.	1.2
O=C(Cc1cccs1)N1CCN(C(=O)C2CCCO2)CC1 (centres undefined)	-18.9%	-3.4	4.0	-8.3	-7.2
S=c1[nH]nc(CCc2ccccc2)n1-c1ccc(Cl)cc1	5.3%	2.3	0.1	.	-2.5
CC1(C(=O)Nc2cccc(S(=O)(=O)N3CCOCC3)c2)Cc2ccccc2C(=O)O1 (centres undefined)	-0.7%	1.0	4.2	.	2.0
CC(=O)N1CSCC1C(=O)O (centres undefined)	-5.6%	0.5	6.2	-45.7	-4.5
COc1ccc(CCNC(=O)c2cc([N+](=O)[O-])cc([N+](=O)[O-])c2)cc1OC	.	-182.0	.	.	99.6
O=C(CNS(=O)(=O)c1ccc(F)c(Cl)c1)NCCc1ccccc1	.	1.2	.	.	4.1
Cc1ccc2c(c1)NCC(C(=O)NC1CCCCC1)O2 (centres undefined)	1.0%	-2.9	2.9	0.9	-10.1
CCCCCCCN=CC1=C(O)CC(c2ccccc2)CC1=O (centres undefined)	11.6%	-0.1	-2.7	-15.9	6.5
O=C(CCSc1ccccc1)Nc1ccc(OCc2ccccc2)cc1	?	-0.5	-0.6	-26.4	79.2
O=c1cc(CSc2nc(NCc3ccccc3)c3ccccc3n2)nc2ccc(Cl)cn12	71.9%	-6.6	16.6	-6.8	44.2
Cc1cc(C)n(CC(=O)N/N=C/c2cc(Br)cc([N+](=O)[O-])c2O)n1	12.8%	6.4	16.8	.	12.9

The final 3 records of the section before come first, to join the parts.
SMILES	Mtb H37Rv	RecA splice inh	Arbovirus anti	YopH PTP inh	Mtb betalactam	others
O=C(CCSc1ccccc1)Nc1ccc(OCc2ccccc2)cc1	?	-0.5	-0.6	-26.4	79.2
O=c1cc(CSc2nc(NCc3ccccc3)c3ccccc3n2)nc2ccc(Cl)cn12	71.9%	-6.6	16.6	-6.8	44.2
Cc1cc(C)n(CC(=O)N/N=C/c2cc(Br)cc([N+](=O)[O-])c2O)n1	12.8%	6.4	16.8	.	12.9
O=c1c(Cc2ccc(Cl)cc2Cl)c(O)ccn1Cc1ccncc1	0.7%	-2.1	-1.6	.	-2.2
CCN(CC(=O)NCc1ccc(F)cc1)CC(=O)Nc1ccc(S(=O)(=O)N2CCCC2)cc1	1.0%	0.0	5.6	.	-1.0
CN(CCO)S(=O)(=O)c1ccc2c(c1)C(=NNC(N)=O)c1cc(S(=O)(=O)N(C)CCO)ccc1-2	-5.0%	-1.3	.	.	-5.0
S=C(Nc1ccccc1)N1CCCCCC1	-4.3%	-0.8	-1.4	-48.4	-2.0
CC1CCN(C(=O)Cn2c(=O)n(-c3ccc(F)cc3)c(=O)c3sccc32)CC1	-9.0%	-0.4	-2.4	.	-7.2
Cc1c(C(=O)Nc2cccc([N+](=O)[O-])c2)cnn1-c1ccccc1	.	4.2	.	.	-0.5
O=C(Nc1ccccc1)C1CCCN(C(=O)c2ccc(Cl)cc2)C1 (centres undefined)	6.4%	-0.4	10.5	.	0.3
O=C(/C=C/c1ccc(F)cc1)NCCC1=CCCCC1	-19.1%	1.8	-4.9	-30.6	14.7
COc1ccc(N2CC(C(=O)Nc3cccnc3)CC2=O)cc1 (centres undefined)	.	-3.6	.	.	-1.1
CSCCC(NC(=O)c1ccc(Cl)cc1)C(=O)OCC(=O)NCc1ccco1 (centres undefined)	.	1.2	.	.	-12.2
c1coc(CNc2nc3sc4c(c3c3ncnn23)CCCC4)c1	7.4%	2.4	-0.3	-39.7	5.4	Arbovirus anti repeat=3.1
COc1ccc(NC(=O)c2cc(C3CC3)on2)c(OC)c1	2.7%	0.7	-1.1	-21.2	-5.2	Arbovirus anti repeat=-0.1
CCN(CC(=O)NCc1cccs1)C(=O)c1cccc(S(=O)(=O)Nc2ccccc2Cl)c1	.	1.8	.	.	-9.5
COc1cc2c(cc1NC(=O)COc1ccc3ccccc3c1)oc1ccccc12	-6.3%	-0.2	-9.7	23.4	28.5
COC(=O)c1ccc(C)c(NC(=O)c2c(-c3ccccc3)noc2C)c1	-3.6%	1.9	-5.8	-30.5	-0.2
COc1ccc(Cl)cc1Nc1nc(-c2sc(NC(=O)CC(C)C)nc2C)cs1	3.0%	4.6	5.3	-29.9	94.7
CC(C)(C)c1ccc(C(=O)Nc2ccccc2Cl)cc1	4.2%	6.2	3.2	.	12.9
O=C(O)CCS(=O)(=O)c1ccc(-c2ccccc2)cc1	-7.3%	-1.3	6.6	-26.8	0.8
CC(=O)c1cccc(S(=O)(=O)NCC(C)(C)N2CCOCC2)c1	.	-1.3	.	.	-6.8
COc1ccc(N2CCN(C(=O)c3ccc(Cl)c(S(=O)(=O)N4CCCC4)c3)CC2)cc1	-3.0%	0.7	0.6	.	3.7
CCCc1cc2c(cc1NC(=O)c1ccc(Br)cc1)OCO2	3.1%	-3.0	9.5	-9.3	-4.5
Cc1nonc1OC(C)CNc1ccc([N+](=O)[O-])cc1 (centres undefined)	6.2%	0.3	-4.0	-26.9	-0.5
CCCn1c(=N)n(CC(=O)c2ccc(OCC(=O)OC)cc2)c2ccccc21	.	1.3	.	.	96.0
CC(C)(CCl)C(=O)Nc1ccc(OC(F)(F)F)cc1	0.5%	0.9	-4.0	.	51.7
COc1ccc(N2C(=O)c3ccc(C(=O)Nc4ccc(NC(C)=O)cc4)cc3C2=O)cc1	.	-3.3	.	.	5.7
